# D2 antag – HTS Assay for Allosteric Antagonists of the Human D2 Dopamine Receptor: Primary Screen for Antagonists | HEK293 TREx D2 cells, calcium flux, dopamine EC80 | inhibition, % at 10 µM | 340,000 compounds, 2% hits | AID 485344, 2010; in the data active means inhibition above about 30%; further: 0% is about no effect
#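 Calcium mobilization kinetics were recorded at 1 s intervals in tetracycline-induced HEK293 T-REx D2 cells, first for 180 s after compound addition and then 180 s after EC80 dopamine.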
# D2 ag – HTS Assay for Allosteric Agonists of the Human D2 Dopamine Receptor: Primary Screen for Agonists; activation, % at 2 µM; D(2) dopamine receptor (Homo sapiens), P14416; HEK293 T-REx D2 cells, calcium flux agonist mode; 340,000 compounds, 0.53% hits; AID 485358, 2010;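 active means activation over 3 SD above normal in the single-dose calcium agonist read, cut at about 30% in these data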; further: 0% is about no effect
#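 HEK293 Trex D2 cells, tetracycline-induced, o/n 30 C 5% CO2; no-wash Ca dye, RT 30–90 min; 10-cycle baseline, 23 nl cpd added, kinetic Ca read 180 s; agonist hits = positive Ca response.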
# D2 PAM – HTS Assay for Positive Allosteric Modulators of the Human D2 Dopamine Receptor: Primary Screen for Potentiators. D(2) dopamine receptor (Homo sapiens), P14416. HEK293 T-REx D2, calcium flux, EC20 dopamine potentiation. potentiation, % at 10 µM. 340,000 compounds, 0.34% hits;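 active means potentiation over 3 SD above the plate norm, cut at about 30% in these data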; further: 0% is about no effect
#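 Tetracycline-induced HEK293 T-REx cells force-coupled to calcium signalling expressed D2; compounds were pin-added after a 10 s baseline, read kinetically 180 s, then an EC20 dopamine challenge followed with a further 180 s calcium read.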
# RXFP1 antagonist – qHTS Assay for Antagonists of the Relaxin Receptor RXFP1 | HEK293-RXFP1, relaxin-stimulated cAMP HTRF, 30 min; active compounds read low | activity change, negative = inhibition, % at 57.5 µM | AID 1259400, 2018 | 350,000 compounds, 0.59% hits;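 active means activity change of -60% or lower, but not beyond a set lower limit; inconclusive means change between -60% and -40%, or beyond the set limit; inactive means change above -40%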; further: on the % scale 0 is the no-effect control and ±100 the full control effect
# Target sequence (Q9HBX9 whole entry, looked up): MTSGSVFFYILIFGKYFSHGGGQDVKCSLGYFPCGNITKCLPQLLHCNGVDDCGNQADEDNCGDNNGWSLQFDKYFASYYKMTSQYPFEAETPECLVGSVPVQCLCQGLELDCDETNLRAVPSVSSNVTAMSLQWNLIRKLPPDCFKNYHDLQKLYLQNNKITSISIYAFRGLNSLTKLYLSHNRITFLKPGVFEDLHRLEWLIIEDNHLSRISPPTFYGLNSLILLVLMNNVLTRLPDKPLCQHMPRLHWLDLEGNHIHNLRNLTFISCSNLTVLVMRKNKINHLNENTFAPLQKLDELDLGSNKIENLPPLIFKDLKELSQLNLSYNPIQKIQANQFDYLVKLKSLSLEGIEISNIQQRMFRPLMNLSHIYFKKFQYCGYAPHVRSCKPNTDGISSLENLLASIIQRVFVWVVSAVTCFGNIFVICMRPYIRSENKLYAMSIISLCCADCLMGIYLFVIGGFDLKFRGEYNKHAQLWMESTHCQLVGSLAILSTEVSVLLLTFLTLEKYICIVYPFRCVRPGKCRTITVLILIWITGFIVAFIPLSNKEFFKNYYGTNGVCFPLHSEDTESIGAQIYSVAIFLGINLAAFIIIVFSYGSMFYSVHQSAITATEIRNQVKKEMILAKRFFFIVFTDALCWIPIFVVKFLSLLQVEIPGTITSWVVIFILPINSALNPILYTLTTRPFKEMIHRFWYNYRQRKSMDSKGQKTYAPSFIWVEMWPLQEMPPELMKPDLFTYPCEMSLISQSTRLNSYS
# The depositor's hits bear a star; ? = inconclusive; . = no result given; & = joins results of further samples.
# Keys – A = D2 antag; B = D2 ag; C = D2 PAM; D = RXFP1 antagonist
1	Nc1nc2c(ncn2COCCO)c(=O)[nH]1
  A: -34.6	B: 1.8	C: 8.2	D: 11.3

2	CC(C)(C)c1ccc(C(O)CCCN2CCC(C(O)(c3ccccc3)c3ccccc3)CC2)cc1 (stereo not given)
  A: 22.8	B: 2.1	C: -16.2	D: 12.5

3	CCN(CC)CCNC(=O)c1ccc(N)cc1
  A: -2.0	B: 0.4	C: -7.0	D: -7.8

4	C[C@H]1[C@H](NC(=O)C(=NOC(C)(C)C(=O)O)c2csc(N)n2)C(=O)N1S(=O)(=O)O
  A: 16.1	B: -0.5	C: -9.8	D: .

5	Nc1ncnc2c1ncn2[C@@H]1O[C@H](COP(=O)(O)OP(=O)(O)OP(=O)(O)O)[C@@H](O)[C@H]1O
  A: 0.9	B: -1.7	C: -4.5	D: .

6	COc1ccc2cc([C@H](C)C(=O)O)ccc2c1
  A: 15.2	B: -1.9	C: 8.7	D: -13.9

7	Nc1nc2ncc(CNc3ccc(C(=O)N[C@@H](CCC(=O)O)C(=O)O)cc3)nc2c(=O)[nH]1
  A: -15.3	B: -0.4	C: 4.2	D: 6.3

8	Cn1c(=O)c2[nH]cnc2n(C)c1=O
  A: 20.6	B: 11.2	C: 4.8	D: 5.1

9	CN1[C@@H]2CC(OC(=O)[C@H](CO)c3ccccc3)C[C@H]1[C@@H]1O[C@@H]12 (stereo not given in full)
  A: -19.9&-10.4&-1.9	B: -1.9&0.1&-2.4	C: 7.1&23.8&12.8	D: 21.3

10	CC1(C)SC2[C@H](NC(=O)C(NC(=O)N3CCNC3=O)c3ccccc3)C(=O)N2C1C(=O)O (stereo not given in full)
  A: 12.5	B: -0.6	C: 5.7	D: .

11	CSc1ccc(C(=O)c2[nH]c(=O)[nH]c2C)cc1
  A: -19.4	B: 0.6	C: 11.6	D: 12.3

12	CCCCC1=NC2(CCCC2)C(=O)N1Cc1ccc(-c2ccccc2-c2nn[nH]n2)cc1
  A: 3.4	B: -0.5	C: 15.8	D: -33.1

13	CC(=O)Nc1c(I)c(NC(C)=O)c(I)c(C(=O)O)c1I
  A: 9.2&-2.0&0.8	B: 1.3&-3.7&-0.5	C: 9.5&-2.5&5.6	D: -9.1

14	CC(=O)OCC(=O)C1(O)CCC2C3CCC4=CC(=O)C=CC4(C)C3C(O)CC21C (stereo not given)
  A: -2.9	B: 0.6	C: -6.7	D: -16.9

15	OC[C@@H](O)[C@@H](O[C@H]1O[C@H](CO)[C@@H](O)[C@H](O)[C@H]1O)[C@H](O)[C@@H](O)CO
  A: -10.1	B: -1.4	C: -7.3	D: .

# 3 structures from above, sorted by formula weight, largest number first.
# Keys – A = D2 antag; B = D2 ag; C = D2 PAM; D = RXFP1 antagonist
11	CSc1ccc(C(=O)c2[nH]c(=O)[nH]c2C)cc1
  A: -19.4	B: 0.6	C: 11.6	D: 12.3

3	CCN(CC)CCNC(=O)c1ccc(N)cc1
  A: -2.0	B: 0.4	C: -7.0	D: -7.8

8	Cn1c(=O)c2[nH]cnc2n(C)c1=O
  A: 20.6	B: 11.2	C: 4.8	D: 5.1

# Single records, as listed above:
# Nc1nc2c(ncn2COCCO)c(=O)[nH]1 is listed with D2 antag = -34.6; D2 ag = 1.8; D2 PAM = 8.2; RXFP1 antagonist = 11.3
# CC1(C)SC2[C@H](NC(=O)C(NC(=O)N3CCNC3=O)c3ccccc3)C(=O)N2C1C(=O)O (stereo not given in full) is listed with D2 antag = 12.5; D2 ag = -0.6; D2 PAM = 5.7; RXFP1 antagonist = .
# CC(=O)OCC(=O)C1(O)CCC2C3CCC4=CC(=O)C=CC4(C)C3C(O)CC21C (stereo not given) is listed with D2 antag = -2.9; D2 ag = 0.6; D2 PAM = -6.7; RXFP1 antagonist = -16.9

# Other entries follow:
# Keys – A = D2 antag; B = D2 ag; C = D2 PAM; D = RXFP1 antagonist
16	CNCC(=O)O
  A: 11.1	B: 0.8	C: 6.3	D: .

17	Clc1ccc(C(Cn2ccnc2)OCc2c(Cl)cccc2Cl)c(Cl)c1 (stereo not given)
  A: -6.2	B: 1.7	C: 3.5	D: ?

18	CC(C)C[C@@H](N)C(=O)O
  A: .	B: .	C: .	D: 6.4

19	CCn1nc(C(=O)O)c(=O)c2cc3c(cc21)OCO3
  A: 5.9	B: -1.9	C: 5.4	D: -1.6

20	Nc1ccn([C@@H]2CS[C@H](CO)O2)c(=O)n1
  A: -1.8	B: 0.6	C: -5.2	D: .

# Compound activity deposited in PubChem BioAssay by National Center for Advancing Translational Sciences (NCATS).

# Only part of the results is shown. The share of hits here may be higher or lower than overall.
